GIV-Gai inh = inhibitors of GIV peptide binding to Galpha-i3, primary screen, biochemical, fluorescence polarization, FITC-GIV GBA peptide, rat Galphai3 | AID 1224905, 2016 | 90 min; hits give low values; scaled: aluminum fluoride 0%, vehicle 100% | 210,000 compounds, 0.42% hits | percent of control (FP), % (concentration not given with the values) | Guanine nucleotide-binding protein G(i) subunit alpha-3 (Rattus norvegicus), P08753;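 active = replicate mean at 85% of control or lower, very high polarization wells dropped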;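 also: wells of about 15 µL received 100 nL stock; the first replicate is given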
Target sequence (P08753 whole entry, looked up): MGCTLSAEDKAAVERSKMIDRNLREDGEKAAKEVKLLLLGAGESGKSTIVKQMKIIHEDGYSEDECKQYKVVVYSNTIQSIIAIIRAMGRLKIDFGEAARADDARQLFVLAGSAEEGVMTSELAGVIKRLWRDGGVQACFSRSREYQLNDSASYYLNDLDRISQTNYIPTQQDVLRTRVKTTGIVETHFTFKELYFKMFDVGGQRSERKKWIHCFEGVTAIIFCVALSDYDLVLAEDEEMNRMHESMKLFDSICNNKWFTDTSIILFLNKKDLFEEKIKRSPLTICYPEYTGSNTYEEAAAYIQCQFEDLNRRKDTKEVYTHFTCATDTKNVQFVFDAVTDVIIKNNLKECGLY
Starred values were filed as active, the others as inactive.

SMILES	GIV-Gai inh
CCc1ccc(NC(=O)CSc2nc3cc(C(=O)NCc4ccco4)ccc3c(=O)n2Cc2ccco2)cc1	108
O=S(=O)(c1ccc2[nH]c3nc4nc(-c5ccc(Br)cc5)cn4nc3c2c1)N1CCCC1	129
CCCn1ccnc(N2CCCCC2)c1=O	110
O=C(c1cc2cc(Cl)ccc2[nH]1)N1CCN(S(=O)(=O)c2ccc3[nH]c(=O)sc3c2)CC1	101
Nc1nc(N2CCN(c3ccccn3)CC2)ncc1S(=O)(=O)c1ccccc1	107
CCCn1cnc2cc(-c3noc(-c4sc(C)nc4C)n3)ccc21	101
O=S(=O)(c1ccccc1)N(CC(O)CN1CCCCC1)c1cccc2ccccc12 (stereo not drawn)	104
CCOC(=O)N1CCN(c2ncnc3c2cnn3-c2ccc(Cl)cc2)CC1	109
COc1ccccc1CNC(=O)c1ccc2c(=O)n(CCc3c[nH]c4ccccc34)c(=S)[nH]c2c1	100
CCOC(=O)C1=C(c2ccccc2)N=C2SCC(=O)N2C1c1ccc2c(c1)OCO2 (stereo not drawn)	107
O=C(NC1CC1)C1=CSCCO1	104
O=C(NCCc1c[nH]c2ccc(Cl)cc12)c1csc(-c2ccncc2)n1	101
N#CC1=C(NC(=S)NC(=O)c2ccccc2)c2ccccc2CC12CCCCC2	109
CC(C(=O)NCC1(c2ccccc2)CCCC1)N1CCCCC1 (stereo not drawn)	103
CCOC(=O)c1c(Cn2cnnn2)n(-c2ccccc2)c2cc(Br)c(OC)cc12	114
Cc1cc(C)c(S(=O)(=O)N2CCCN(c3nc4cccnc4s3)CC2)cc1C	103
O=S(=O)(Nc1cccn2c(C3CCC3)nnc12)c1ccc2c(c1)CCCC2	107
CCOc1cc(C2C(C(=O)OCCSCC)=C(C)NC3=C2C(=O)CC(c2cccs2)C3)ccc1O (stereo not drawn)	98
CC(C)Cc1csc(-c2csc(S(=O)(=O)NCc3ccc(F)cc3)c2)n1	104
Cc1cccc(-n2ncc3c(N4CCN(c5ccc(F)cc5)CC4)ncnc32)c1	121
Cc1cc(NC(=O)Cc2nn(C)c(=O)c3ccccc23)no1	104
Cc1ccc(NC(=O)NCc2ccnc(N3CCCCC3)c2)cc1C	106
COc1nc2c(c(=O)n(C)c(=O)n2C)n1Cc1ccc(Cl)c(Cl)c1	106
CCOc1ccc(C2=NN3C(C2)c2cc(Cl)ccc2OC3c2ccc(F)c(F)c2)cc1 (stereo not drawn)	102
CCCS(=O)(=O)c1c(S(=O)(=O)CCC)c2ccccn2c1C(=O)c1ccc(Br)cc1	108
COc1cccc(NS(=O)(=O)c2cc(-c3nc(C)c(C(=O)N4CCCCC4)s3)n(C)c2C)c1	101
O=S(=O)(NC1c2cccc3cccc(c23)C1N1CCN(C(=S)Nc2ccccc2)CC1)c1ccc(Cl)cc1 (stereo not drawn)	110
CN1C2C=C(N(CCc3ccccc3)C(=O)c3ccc(Cl)cc3)CC1CC2 (stereo not drawn)	105
Cc1ccccc1NC(=O)/C(C#N)=C(\Nc1ccccc1)SCc1ccccc1F	98
Cc1cccc(CNC2=NCCNC23CCN(S(=O)(=O)c2ccc(C)cc2C)CC3)c1	104
Cc1ccc(NC(=O)CSc2nc3ccccc3c(=O)n2NS(=O)(=O)c2ccc(C)cc2)cc1	107
O=CN1C(OC(=O)c2ccccc2)C(OC(=O)c2ccccc2)N(C=O)C(OC(=O)c2ccccc2)C1OC(=O)c1ccccc1 (stereo not drawn)	110
COc1cc(-c2[nH]nc3c2C(c2cccc(OC(=O)c4ccco4)c2)C(C#N)=C(N)O3)cc(OC)c1OC (stereo not drawn)	95
COc1ccc(-n2c(=S)[nH]c3cc(C(=O)NCCSCc4ccccc4)ccc3c2=O)cc1	111
CCOC(CCNC(=O)c1ccc2c(=O)n(Cc3ccc4c(c3)OCO4)c(=S)[nH]c2c1)OCC	110
COC(=O)c1c(C)oc2ccc(N(C(=O)c3ccncc3)S(=O)(=O)c3ccc(Cl)cc3)cc12	107
Cc1cc(C)c2c(c1)-c1c(ssc1=S)C(C)(C)N2C(=O)CN1C(=O)c2ccccc2C1=O	107
Cc1csc2nc(-c3cccc(NC(=O)C4CCCCC4)c3)cn12	102
COC(=O)c1c(NC(=O)Cn2nc([N+](=O)[O-])c(Br)c2C)sc2c1CCC(C(C)(C)C)C2 (stereo not drawn)	113
O=C(c1cccc([N+](=O)[O-])c1)N1N=C2CCCCC2C1(O)C(F)(F)F (stereo not drawn)	113
CCOC(=O)c1cc(C)nc2c1c(=O)n(Cc1ccc(Br)cc1F)c(=O)n2C	103
CCOC(=O)c1c(NC(=O)CSc2nnc(CNC(=O)c3ccco3)n2-c2ccccc2OC)sc2c1CCCC2	115
CNC(=O)Nc1ccc2sc(C(=O)OC)c(OC)c2c1	103
Cc1ccccc1N1CC(O)(c2ccccc2)[N+]2=C1CCCC2 (stereo not drawn)	111
CCN(CC)C(=O)CSc1nc2c(sc(=S)n2-c2ccccc2)c(=O)[nH]1	115
O=C(CSc1nc2ccccc2nc1Cc1ccccc1)Nc1nccs1	98
O=C(NCc1cccnc1)c1ccc(CN2C(=O)C3CCCN3C(=O)c3ccccc32)cc1 (stereo not drawn)	100
COc1cc2nc(/C=C/c3ccccc3F)n(-c3ccccc3OC)c(=O)c2cc1OC	108

Already shown: seven of the compounds above.
SMILES	GIV-Gai inh
CCOC(=O)c1c(NC(=O)CSc2nnc(CNC(=O)c3ccco3)n2-c2ccccc2OC)sc2c1CCCC2	115
CNC(=O)Nc1ccc2sc(C(=O)OC)c(OC)c2c1	103
Cc1ccccc1N1CC(O)(c2ccccc2)[N+]2=C1CCCC2 (stereo not drawn)	111
CCN(CC)C(=O)CSc1nc2c(sc(=S)n2-c2ccccc2)c(=O)[nH]1	115
O=C(CSc1nc2ccccc2nc1Cc1ccccc1)Nc1nccs1	98
O=C(NCc1cccnc1)c1ccc(CN2C(=O)C3CCCN3C(=O)c3ccccc32)cc1 (stereo not drawn)	100
COc1cc2nc(/C=C/c3ccccc3F)n(-c3ccccc3OC)c(=O)c2cc1OC	108

Further compounds
SMILES	GIV-Gai inh
O=C(Cn1nc(C(=O)N2CCCC2)c2ccccc21)Nc1ccc(F)c(Cl)c1	102
CCOC(CNC(=O)c1ccc2c(c1)nc(C)n2-c1ccc(Br)cc1)OCC	111
CN(NC(=O)Cc1ccccc1)c1ccc(Br)cc1	104
CCOC(=O)C1=C(C)NC2=C(C(=O)c3ccccc32)C1c1ccccc1OCc1cccc(F)c1 (stereo not drawn)	112
CC(CNC(=O)c1sc2ccccc2c1Cl)NC(=O)c1sc2ccccc2c1Cl (stereo not drawn)	108
COc1ccc(/C=C2\C=C(c3ccccc3)N(c3ccc(C(=O)O)cc3)C2=O)cc1Br	117
CCC1(C)CC(CCNCc2ccc(N(C)C)cc2)(c2ccc(OC)cc2)CCO1 (stereo not drawn)	123
Cc1noc(C)c1C1CCCN1Cc1ccccc1Cl (stereo not drawn)	102
CC(C)C(=O)NCCC1CCN(C(=O)c2ccccc2)CC1	101
CN(C)S(=O)(=O)c1ccc(-c2noc(C(=O)NC3CCN(Cc4ccccc4)CC3)n2)cc1	101
Cc1ccc(-n2nnc3c(N4CCN(C(=O)c5ccc6c(c5)OCO6)CC4)ncnc32)cc1	101
CCOC(=O)c1c(NC(=S)NC(=O)c2ccccc2)sc2c1CC(C)(CC)OC2 (stereo not drawn)	107
CCOC(=O)N1CCN(C(=O)c2ccc3c(=O)n(-c4ccccc4)c(SCC(=O)c4ccccc4)nc3c2)CC1	114
CCOC(=O)c1sc2nc(CC(=O)OC)nc(Nc3ccc4c(c3)OCCO4)c2c1C	103
Cc1nn(-c2nc3ccccc3s2)c2c1C(c1ccncc1)CC(=O)N2 (stereo not drawn)	107
COc1cc(OC)cc(-n2nnc(-c3nsc(Nc4ccc(OC)c(OC)c4)n3)c2C)c1	98
CCOC(=O)c1c(CSc2ccccc2)n(C)c2ccc(O)c(CN3CCOCC3)c12	104
CCOC(=O)c1c(NC(=O)CSc2nnc(CNC(=O)c3ccco3)n2-c2cc(C)ccc2C)sc2c1CCC2	111
COc1ccc(OC)c(S(=O)(=O)N2CCc3nc[nH]c3C2)c1	107
CCc1onc(C)c1C1CCCN1Cc1cn[nH]c1-c1ccc(C)cc1 (stereo not drawn)	121
COC(=O)C(NC(=O)c1cccc(Cl)c1)(Nc1sc2c(c1C#N)CCC(C(C)(C)C)C2)C(F)(F)F (stereo not drawn)	101
FC(F)(F)c1cccc(Nc2nc(-c3cccnc3)nc3ccccc23)c1	97
COc1ccc(CNC(=O)c2nnc3ccc(-c4ccccc4)nn23)cc1	105
O=S(=O)(c1ccc2[nH]c3nc4nc(-c5ccc(Br)cc5)cn4nc3c2c1)N1CCOCC1	109

An excerpt from above in order of formula weight, lowest first.
SMILES	GIV-Gai inh
COc1ccc(CNC(=O)c2nnc3ccc(-c4ccccc4)nn23)cc1	105
CCOC(=O)c1sc2nc(CC(=O)OC)nc(Nc3ccc4c(c3)OCCO4)c2c1C	103
O=S(=O)(c1ccc2[nH]c3nc4nc(-c5ccc(Br)cc5)cn4nc3c2c1)N1CCOCC1	109

Going on with the list.
SMILES	GIV-Gai inh
O=C1C2N=NN(c3ccc(Cl)cc3)C2C(=O)N1c1ccccc1 (stereo not drawn)	107
CC1=C(C(=O)OCc2ccccc2)C(c2cn(-c3ccccc3)nc2-c2cccs2)NC(=O)N1 (stereo not drawn)	107
COc1ccc(C2(O)CN(c3ccccc3OC)C3=[N+]2CCCS3)c(F)c1 (stereo not drawn)	119
c1ccc(OCC2=NNC(c3ccccc3)=Nc3ccccc32)cc1	113
COc1cccc(-c2cc(C(F)(F)F)n3nc(C(=O)N4CCCC4c4cc(C)on4)cc3n2)c1 (stereo not drawn)	100
CCCCC(C(=O)OCCC)N1C(=O)C2C3c4ccccc4C(c4ccccc43)C2C1=O (stereo not drawn)	113
CCOC(=O)c1ccc(-c2ccc(C3Nc4ccc5ccccc5c4C4=C3C(=O)CC(C)(C)C4)o2)cc1 (stereo not drawn)	107
O=C(COc1ccccc1)NCC12C=CC(O1)C1C(=O)N(c3ccc([N+](=O)[O-])cc3)C(=O)C12 (stereo not drawn)	115
O=C(CN1C(=O)/C(=C2\SC(=S)N(C3CCS(=O)(=O)C3)C2=O)c2ccccc21)Nc1cccc(Br)c1 (stereo not drawn)	104
CCCN1CCN(C(=O)c2[nH]c3cc(C)sc3c2CN2CCCC2)CC1	101
COc1cc(/C=C2\C(=O)NC(=S)N(c3ccccc3C)C2=O)cc([N+](=O)[O-])c1O	105
CCn1cnc2sc(C(=O)N3CCCC(C)C3)c(C)c2c1=O (stereo not drawn)	104

Reformatted with each value named: three of the compounds above
COc1ccccc1CNC(=O)c1ccc2c(=O)n(CCc3c[nH]c4ccccc34)c(=S)[nH]c2c1
  GIV-Gai inh: 100

CCOC(=O)C1=C(c2ccccc2)N=C2SCC(=O)N2C1c1ccc2c(c1)OCO2 (stereo not drawn)
  GIV-Gai inh: 107

O=C(NC1CC1)C1=CSCCO1
  GIV-Gai inh: 104

The list continues.
SMILES	GIV-Gai inh
CCS(=O)(=O)N1CCCC(OCc2nc(C)no2)C1 (stereo not drawn)	102
Cc1nc(-c2cc(S(=O)(=O)NC3CCCCCCC3)c(C)s2)sc1C	103
CC(C)(C)c1cc(CCOC(=O)CCc2cc(C(C)(C)C)c(O)c(C(C)(C)C)c2)cc(C(C)(C)C)c1O	100
COC(=O)C1=C(C)NC(C)=C(C(=O)OC)C1c1cn(-c2ccccc2)nc1-c1ccc([N+](=O)[O-])cc1	106
O=C(O)C1C2C(=O)OC3C(Cl)C1C1(CC1)C32 (stereo not drawn)	107
CC(=O)c1cccc(NC(=O)c2ccc(N3CC4CC(C3)c3cccc(=O)n3C4)c(NC(=O)c3c(F)cccc3F)c2)c1 (stereo not drawn)	111
NC(=S)NN=C1CSc2sc(=O)sc2SC1	104
COc1ccc(/C=c2\sc3nnc(-c4ccc(C)cc4)n3c2=O)c(OC)c1	126
O=C(CN1C(=O)CSc2sc(S(=O)(=O)N3CCCC3)cc21)NCc1ccccc1	96
CCOC(=O)c1cnc2c(C)cc(C)cc2c1Nc1cccc2ccccc12	103
CC(C)N1CCN(C(=O)c2n[nH]c3c2CCCC3)CC1	100
Cc1nn(-c2ccc(F)cc2)c2sc(C(=O)Nc3ccc(Cl)cc3)cc12	104
CCS(=O)(=O)Nc1ccc(C2(C(=O)N3CCN(C(C)C)CC3)CCCCC2)cc1	93
O=C1C(=O)N(c2nccs2)C(c2ccc(Cl)cc2)/C1=C(/O)c1ccc(F)cc1 (stereo not drawn)	110
O=C(Nc1ccc(Cl)cc1)N(Cc1nnc2n1CCCCC2)c1ccccc1	99
O=S1(=O)N=CN(c2ccc(Br)cc2)c2ncccc21	99
O=c1n(Cc2ccc(F)cc2)nc2c(S(=O)(=O)N3CCOCC3)cccn12	104
COc1cn(CC(=O)NCCc2ccccc2)c(CN2CCC(C)CC2)cc1=O	95
Cc1cccc(-c2nccc(Oc3ccc(C(=O)Nc4ccc5c(c4)OCCO5)cc3)n2)c1	109
COc1ccc(/C=c2\sc3nnc(-c4ccccc4)n3c2=O)c(OC)c1	112
O=C(CCc1nc(CSc2nnc(-c3ccccc3)o2)no1)Nc1ccccc1F	103
CN1C(=O)CC(C(=O)Nc2ccc(C(=O)O)cc2)SC1=Nc1cccc(C(F)(F)F)c1 (stereo not drawn)	103
CCOC(=O)C1=C(N)n2c(s/c(=C\c3ccco3)c2=O)=C(C#N)C1c1ccco1 (stereo not drawn)	109
COc1ccc(C(=O)Nc2cnc(N3CCN(CC(=O)N4CCCC4)CC3)c(C(=O)O)c2)cc1	109

Screening results from PubChem BioAssay.

Some of the compounds tested. The share of hits here may be higher or lower than overall.
